gsp antagonist – qHTS for Antagonists of gsp, the Etiologic Mutation Responsible for Fibrous Dysplasia/McCune-Albright Syndrome: qHTS; Potency, µM (doses to about 76.9 µM), without a hit: at the top dose activity change, negative = inhibition, most hits filed as inhibitors; gsp-mutant cells, cAMP HTRF, 30 min; control for the full effect not named in the record; AID 624288, 2012; hit rate 0.4% among 340,000; active = falling curve of any shape with a large fitted effect; inconclusive = falling curve, mostly with a smaller effect; inactive = flat or rising curve; cell line not stated here;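 further: intracellular cAMP measured with PDE inhibitor Ro 20-1724 present during compound exposure; potency means the concentration at half of the fitted maximal effect; on the % scale 0 is the no-effect control and ±100 the full control effect; nearly all actives have a fitted effect of over 65% in size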
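Cells in G418 medium, seeded 16-24 h, 37C; buffer exchange to DPBS + 1 mM CaCl2, 0.5 mM MgCl2, 0.05% BSA; cpds in DMSO + […] (300 uM stock), 30 min 37C; HTRF cAMP detection.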
TRPV1 PAM – HTS Assay for Compounds that Act as Potentiators of the Vanilloid Receptor 1; TRPV1-expressing cells, Fluo-8 calcium influx, capsaicin EC20 potentiation; host cell line not named in the record; control for the full effect not named in the record; potentiation, % at 8.33 µM; hit rate 0.02% among 320,000; AID 540277, 2011; active means potentiation above 80%; inconclusive means 30% to 80%; inactive means below 30%; further: 0% is about no effect
Target sequence (Q8NER1 whole entry, looked up): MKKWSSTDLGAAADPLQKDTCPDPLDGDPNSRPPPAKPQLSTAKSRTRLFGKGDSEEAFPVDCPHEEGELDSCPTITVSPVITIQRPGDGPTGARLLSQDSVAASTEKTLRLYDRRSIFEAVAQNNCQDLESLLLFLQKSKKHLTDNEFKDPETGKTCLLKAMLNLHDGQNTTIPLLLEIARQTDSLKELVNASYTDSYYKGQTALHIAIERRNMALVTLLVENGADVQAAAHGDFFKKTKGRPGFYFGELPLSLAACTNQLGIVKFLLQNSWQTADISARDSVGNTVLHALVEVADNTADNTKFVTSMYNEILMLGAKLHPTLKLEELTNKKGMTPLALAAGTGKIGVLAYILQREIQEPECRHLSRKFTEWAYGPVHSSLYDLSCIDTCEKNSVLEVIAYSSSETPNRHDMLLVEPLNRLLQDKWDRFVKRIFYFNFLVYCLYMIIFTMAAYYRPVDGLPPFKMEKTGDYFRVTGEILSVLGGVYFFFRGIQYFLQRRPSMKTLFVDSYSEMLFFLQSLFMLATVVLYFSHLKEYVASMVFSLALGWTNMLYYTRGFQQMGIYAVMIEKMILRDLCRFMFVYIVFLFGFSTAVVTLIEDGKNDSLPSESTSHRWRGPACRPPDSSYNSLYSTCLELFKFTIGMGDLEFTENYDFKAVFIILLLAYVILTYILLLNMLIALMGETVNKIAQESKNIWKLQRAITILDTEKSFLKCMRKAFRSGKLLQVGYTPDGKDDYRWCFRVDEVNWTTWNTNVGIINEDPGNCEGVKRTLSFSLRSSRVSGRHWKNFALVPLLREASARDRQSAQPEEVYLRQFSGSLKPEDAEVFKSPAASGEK
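Fluo-8 calcium influx in TRPV1-expressing cells, kinetic read (ex 480/em 520 nm). Compound added and read 3 min for agonist activity, followed by capsaicin at EC20 final and 2 min further read for enhancement.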
gsp ag – qHTS for Agonist of gsp, the Etiologic Mutation Responsible for Fibrous Dysplasia/McCune-Albright Syndrome: qHTS | hit rate 0.13% among 340,000 | gsp mutant cells, cAMP HTRF, 30 min; control for the full effect not named in the record | Potency, µM (highest dose often 76.9 µM), inactives show at the top dose activation (cAMP increase), actives largely listed as activators; active = well fitted activation curve with a large enough effect; inconclusive = small, poorly fitted or top-dose-only effect, or another doubt; inactive = no such curve, though single readings can be large or run the other way; cell line not stated here;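 further: phosphodiesterase inhibitor Ro 20-1724 added with compounds to block cAMP breakdown; potency means the concentration at half of the fitted maximal effect; nearly all actives have a fitted effect of over 60% in size; about a fifth of the inactives were tested at one dose only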
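Cells stably selected in G418 were plated at 2000/well, grown 16-24 hr, then given compounds in DMSO with the PDE inhibitor […] (300 uM solution added) for 30 min at 37C; cAMP was read by HTRF.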
Menin-MLL FL inh – qHTS Assay for Inhibitors Targeting the Menin-MLL Interaction in MLL Related Leukemias: Competition With Fluorescein Labeled MLL-derived Peptide. Fluorescence polarization, fluorescein-MLL peptide displacement from menin. FP activity change, % at 61.4 µM. 290,000 tested, under 10 active; inconclusive = falling polarisation curve, or a change in total fluorescence; inactive = total fluorescence flat and polarisation flat or rising; no compound was filed as active; the % refers to the polarisation; negative = inhibition;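 further: % of control where 0% means no effect; inhibitors lower the polarisation; unlabelled MLL peptide was the positive control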
Sfp inh – qHTS Assay for Inhibitors of Bacillus subtilis Sfp phosphopantetheinyl transferase (PPTase) | 4'-phosphopantetheinyl transferase ffp (Bacillus subtilis), Q9F4F7 | Biochemical Sfp PPTase activity, qHTS | Potency, µM, for the others: max response, negative = inhibition, hits mostly inhibitors | hit rate 3.5% among 310,000 | AID 1490, 2009; active means well fitted inhibition curve with a large enough effect; inconclusive means small, poorly fitted or top-dose-only effect, or another doubt; inactive means no such curve, though single readings can be large or run the other way;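 further: the enzyme is Sfp with the accession as filed and its product quenches rhodamine fluorescence; potency means the concentration at half of the fitted maximal effect; 0% = enzyme reaction without inhibitor and -100% = no enzyme wells; top concentration of the series not given in the record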
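Step 1, compound plus 15 nM Sfp-PPTase, 15 min, room temperature. Step 2, add rhodamine-CoA (5 uM) and BHQ-2-YbbR (12.5 uM). Step 3, read 525/598 nm fluorescence at 0 and 30 min.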
TRPML1 inh – qHTS for Inhibitors of the Human Mucolipin Transient Receptor Potential 1 (TRPML1); hit rate 0.02% among 390,000; TRPML1-inducible cells, Ca2+ dye fluorescence, FDSS; stronger effect = lower value; inhibition of EC80 agonist-evoked calcium signal; AID 624415, 2012; activity change, negative = inhibition, % (no concentration beside the values); Mucolipin-1 (Homo sapiens), Q9GZU1; in the data active means activity change below about -50%; inconclusive means about -30% to -50%; inactive means above about -30%;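 further: stimulus is agonist 54-4 at its EC80 concentration; on the % scale 0 is the no-effect control and ±100 the full control effect; compound concentration not given in the record; the text of the record puts the active cut at -80%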
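TRPML1-DL cells, Tet-induced overnight (~16 h, 37 °C) at 1,500 cells/well, were loaded with Ca8 no-wash dye plus quencher for 45-90 min at room temperature. Compounds were pinned during FDSS kinetic reading; agonist 54-4 at EC80 (4 uM final) then added.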
ClpP mod – qHTS Assay for Activators of ClpP; ATP-dependent Clp protease proteolytic subunit (Bacillus subtilis (strain 168)), P80244; purified B. subtilis ClpP, FRET peptide cleavage, 20 min; Potency, µM (doses to about 57.5 µM), inactives show at the top dose activity change, negative = active; hit rate 1.9% among 340,000; AID 651965, 2013; active = well fitted falling curve with a large enough effect; inconclusive = small, poorly fitted or top-dose-only effect; inactive = no such curve, though single readings can be large or run the other way; further: potency means the concentration at half of the fitted maximal effect; the source files actives as falling curves though it sought activators and does not explain the sign; nearly all actives have a fitted effect of over 65% in size; many hits overshoot -100%
Target sequence (P80244 whole entry, looked up): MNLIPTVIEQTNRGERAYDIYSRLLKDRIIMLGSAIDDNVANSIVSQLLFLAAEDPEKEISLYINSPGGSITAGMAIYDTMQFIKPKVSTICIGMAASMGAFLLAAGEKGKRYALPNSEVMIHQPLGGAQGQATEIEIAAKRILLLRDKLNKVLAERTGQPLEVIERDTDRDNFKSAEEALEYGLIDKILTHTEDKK
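Purified B. subtilis ClpP, 10 microg/mL final in Tris/HCl pH8 with KCl, BSA, glycerol and Tween-20, cleaved an Abz/nitrotyrosine-quenched decapeptide. Fluorescence (ex 320, em 430) was read at 0 and 20 min at room temperature. Delta was normalized to 5.8 microM ADEP and DMSO/no-enzyme controls.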
The depositor's hits bear a star; ? = inconclusive; . = not tested or not shown; [ ] = another dose, or the depositor's remark. Rows are unselected; about 4.9% have a hit in one of these screens.

SMILES	gsp antagonist	TRPV1 PAM	gsp ag	Menin-MLL FL inh	Sfp inh	TRPML1 inh	ClpP mod
C[C@@H]1CN([C@H](C)CO)C(=O)CCCn2cc(nn2)CO[C@H]1CN(C)C(=O)Nc1cccc2ccccc12	.	.	24%	.	.	6	3.8%
COc1ccc([N+](=O)[O-])cc1NS(=O)(=O)c1cc(C(=O)O)ccc1OC	8%	7	-19%	-0.4	17%	10	0.4%
O=C(COC(=O)Cc1ccc(Cl)cc1)NCc1ccc(F)cc1	6%	-10	-19%	.	.	5	-0.6%
Cc1cc(Cl)ccc1OCCn1cncn1	3%	5	-88%[inhibitor]	0.1	-1%	4	2.0%
CC(C)c1ccc(NC(=O)CCNC(=O)Cn2ccc3ccccc3c2=O)cc1	-3%	5	11%	4.2	5%	-3	.
CS(=O)(=O)N(CC(=O)N1CCCC1)c1cc(Cl)ccc1Cl	12%	2	-14%	-0.3	4%	-3	-1.6%
CCOC(=O)Cc1c(C)c2ccc(N(CC)CC)cc2oc1=O	-9%	20	1%	18	4%	-1	22µM*
COc1ccc(OC)c(C(=O)c2ccccn2)c1	-6%	-1	25%[15.4 µM]	3.5	12%	31	-3.0%
Cc1ccccc1NC(=O)/C(=C\c1cccs1)NC(=O)c1ccccc1	-3%	-22	-3%	-3.5	2%	-6	-3.6%
COc1cc(/C=N/OCC(=O)NC2CCS(=O)(=O)C2)ccc1OC(F)F (configuration not stated)	18%	5	-1%[15.4 µM]	-0.1	6%	?	.

Look-ups from above:
`Cc1cc(Cl)ccc1OCCn1cncn1` in gsp antagonist shows 3%
`CC(C)c1ccc(NC(=O)CCNC(=O)Cn2ccc3ccccc3c2=O)cc1` in Sfp inh shows 5%
`CCOC(=O)Cc1c(C)c2ccc(N(CC)CC)cc2oc1=O` in Menin-MLL FL inh shows 18
`CS(=O)(=O)N(CC(=O)N1CCCC1)c1cc(Cl)ccc1Cl` in TRPML1 inh shows -3

Further compounds follow:
SMILES	gsp antagonist	TRPV1 PAM	gsp ag	Menin-MLL FL inh	Sfp inh	TRPML1 inh	ClpP mod
CSc1ccccc1OCc1cc(C(=O)NCCN2CCCC(O)C2)no1 (configuration not stated)	10%	6	6%[15.4 µM]	.	-2%	-3	28µM*
CSCC(CO)NS(=O)(=O)c1ccc(C)cc1 (configuration not stated)	0%	.	1%[15.4 µM]	-1.9	12%	-14	.
O=C(CSc1nnc(CNC(=O)c2ccco2)o1)Nc1ccc(F)cc1F	25%	-4	-35%[inhibitor]	.	11%	8	0.9%
Cc1ccc(CNC(=O)CS(=O)(=O)c2ccccc2)cc1	-3%	-2	-7%	-4.8	3%	-21	1.4%
CN(C)C(=O)CSc1nnc(-c2ccc(F)cc2)c2ccccc12	-3%	-10	-40%[inhibitor]	-0.3	11%	-19	1.4%
Cc1cc(C2(c3ccc(O)c(C)c3)C(=O)Nc3ccccc32)ccc1O	-4%	-39	-28%	1.7	7%	-1	-0.5%
Cn1cc(CCC(=O)N2CCCC(CCC(=O)NCc3ccc(F)c(F)c3)C2)cn1 (configuration not stated)	6%	-7	-23%	4.7	3%	2	1.1%
CCC(=O)N1c2ccc(S(=O)(=O)N3CCN(C)CC3)cc2CC1C (configuration not stated)	-4%	-15	-1%	-4.5	22%	?	-2.7%
CCC(C)[C@H](NC(=O)N1CC(=O)Nc2ccccc21)C(=O)N1CCC(C(=O)O)CC1 (some centres not stated)	3%	9	15%	.	-1%	8	-4.0%
CCCn1c(-c2ccccc2)cc(SC)c(C#N)c1=O	8%	-8	-16%[15.4 µM]	-2.4	13%	14	.
Cn1ncc(Cl)c1C(=O)NCc1ccc(Cl)cc1	?	13	-1%	3.2	9%	-20	-1.8%
Cc1c(CCOC(=O)c2cc([N+](=O)[O-])cc([N+](=O)[O-])c2)sc[n+]1CC(=O)c1ccccc1	11%	-1	-19%	-0.2	-21%	-9	-0.1%
COC1CCN(Cc2cn(Cc3ccccc3)nc2-c2cc3ccccc3o2)CC1	-1%	0	24%	0.4	7%	.	-15%
Cc1nn(CC(=O)Nc2c(F)cc(F)cc2Br)c(=O)c2cccn12	15%	-17	?	.	16%	-20	-0.5%
CC(C)c1ccc(NC(=O)C2CCCCN2S(=O)(=O)c2ccccc2)cc1 (configuration not stated)	-15%	-29	?	.	.	50	-1.1%
COc1ccc2oc(C(=O)OC(C)C(=O)NCc3ccccc3)c(C)c2c1 (configuration not stated)	-3%	5	11%[15.4 µM]	.	.	-18	.
CN(Cc1nc2ccc(F)cc2[nH]1)C(=O)C1CCC(=O)N(C2CC2)C1 (configuration not stated)	0%	8	3%	1.6	7%	-10	2.3%
CC(NC(=O)c1cccnc1)C(c1cccs1)N1CCOCC1 (configuration not stated)	-8%	-6	1%	1.8	-14%	-6	1.5%
Cc1cc(C)c2[nH]c(=O)c(C(c3nnnn3C(C)(C)C)N(Cc3ccco3)CC3CCCO3)cc2c1 (configuration not stated)	-28%	5	18%	?	?	4	-4.7%
O=C(Nc1ncc([N+](=O)[O-])s1)C1CC(=O)N(c2ccc(F)cc2)C1 (configuration not stated)	-24%	1	3%[15.4 µM]	-2.2	10%	6	.

Arranged by value in TRPML1 inh (falling): some entries from above.
mol | TRPML1 inh
Cc1cc(C)c2[nH]c(=O)c(C(c3nnnn3C(C)(C)C)N(Cc3ccco3)CC3CCCO3)cc2c1 (configuration not stated) | 4
COc1ccc2oc(C(=O)OC(C)C(=O)NCc3ccccc3)c(C)c2c1 (configuration not stated) | -18
Cc1nn(CC(=O)Nc2c(F)cc(F)cc2Br)c(=O)c2cccn12 | -20

(next part)
SMILES	gsp antagonist	TRPV1 PAM	gsp ag	Menin-MLL FL inh	Sfp inh	TRPML1 inh	ClpP mod
CCOC(=O)C1=C(CS(=O)(=O)c2ccc(C)cc2)NC(=O)NC1c1cc(OC)c(O)c(OC)c1 (configuration not stated)	5%	-8	33%	5.0	1%	20	-0.4%
Cc1nonc1OCCNc1ccc([N+](=O)[O-])cc1	-8%	-3	6%[15.4 µM]	-0.3	19%	20	.
COc1ccc(NC(=S)Nc2cccnc2)c(OC)c1	3%	9	-83%[inhibitor]	-1.1	-21%	-7	-1.9%
Cc1cc(=O)n2[nH]c(-c3ccc(Cl)cc3)cc2n1	-9%[15.4 µM]	-4	11%	6.3	2%	-19	28µM*
Cc1ncc([N+](=O)[O-])n1CCN1C(=O)c2ccccc2C1=O	5%	6	-5%[15.4 µM]	2.3	8%	0	1.9%
CN(C)S(=O)(=O)c1ccc2c(c1)/C(=C/c1cc3c([nH]1)CCCC3)C(=O)N2	10µM*	6	.	?	.	-3	-0.5%
COc1cc(Cl)c(C)cc1NC(=O)COC(=O)c1cc(SC)ccc1Cl	22%	5	4%[15.4 µM]	-0.9	14%	31	.
Cc1cc(C(=O)N/N=C(\CCC(=O)O)c2cccs2)c2ccccc2n1	8%	5	5%	-1.0	18%	-9	.
OCC1(Cc2cccc(Cl)c2)CCCN(Cc2sc(N3CCCC3)nc2Cl)C1 (configuration not stated)	-12%	4	-36%	14	6%	9	-0.5%
COc1ccc(-c2cc(C(F)(F)F)n3ncc(C(=O)N4CCCCC4c4cccnc4)c3n2)cc1 (configuration not stated)	-18%	?	1%[15.4 µM]	3.7	-1%	2	0.8%
CS(=O)(=O)Nc1ccc(C(=O)Nc2cccc([N+](=O)[O-])c2)cc1	-17%	-8	-10%[15.4 µM]	4.1	-6%	-16	.
Cc1ccc(S(=O)(=O)NCc2ccco2)cc1C(N)=O	0%	3	0%[15.4 µM]	1.0	11%	-7	.
Cc1ccc(NC2(C#N)C(=O)Nc3ccccc32)cc1 (configuration not stated)	1%	4	6%	-1.3	-1%	18	-0.3%
N#Cc1ccc(C(=O)NNC(=O)c2cccc(S(=O)(=O)N3CCOCC3)c2)cc1	8%	.	-22%[15.4 µM]	.	.	-13	-17%
O=C(Cn1c(/C=C/c2ccccc2)nc2ccccc21)Nc1ccc(F)cc1	2%	10	-7%[15.4 µM]	-0.7	-2%	-13	0.6%
COc1ccc(C(=O)CN2CCN(c3ccc(Cl)cc3)CC2)cc1OC	3%	2	28%	9.3	79µM*	4	-3.7%
Cc1ccc(S(=O)(=O)NCC2CCCO2)cc1 (configuration not stated)	2%	8	-4%[15.4 µM]	0.3	14%	13	0.8%
CC(=O)Nc1cccc(OCC(=O)NS(=O)(=O)c2ccc(Cl)cc2)c1	0%	2	-39%[inhibitor]	5.3	22%	2	32µM*
CCC1(c2ccccc2)NC(=O)N(CC(=O)Nc2cccc(S(=O)(=O)N3CCCCC3)c2)C1=O (configuration not stated)	-42%	-9	-41%	.	.	3	-3.4%
CN(CCO)c1cc(N(C)CCO)c([N+](=O)[O-])cc1[N+](=O)[O-]	8%	?	-36%[inhibitor]	-0.4	-5%	0	.
NC(=O)[C@H]1CC2(CC(c3cccc(NC(=O)CC(c4ccccc4)c4ccccc4)c3)=NO2)CN1C(=O)c1ccccc1C(=O)c1ccccc1 (some centres not stated)	-2%	16	.	5.3	6%	27	-2.6%
Cc1[nH]c2ccc(C(=O)N3CCN(C)CC3)cc2c1C	-25%	9	-3%	-0.3	10%	-1	0.3%
c1ccc(CCC2CCCCN2Cc2cn[nH]c2-c2cc3ccccc3o2)nc1 (configuration not stated)	3%	0	?	0.6	13%	3	.
CC1(C)Cc2c(cnn2-c2ccc(F)cc2)C(NC(=O)C2=NNC(=O)CC2)C1 (configuration not stated)	-3%	-15	22%	0.2	18%	15	-1.7%
COC(=O)c1ccc(Oc2nc(NC(C)C)nc(SC)n2)cc1	-17%	28	-44%[inhibitor]	0.4	-6%	2	1.0%

Source: PubChem BioAssay
